Assay outcomes from PubChem.
GCN5L2 inh = blocks human GCN5L2 histone acetyltransferase | 0.21% of 390,000 active | GCN5L2 HAT assay, ThioGlo1 CoA-SH fluorescence | Potency, µM (doses to about 58.9 µM), inactives show at the top dose activity change, negative = inhibition, hits mostly inhibitors | AID 504327 | Q92830
Target sequence (Q92830 whole entry, looked up): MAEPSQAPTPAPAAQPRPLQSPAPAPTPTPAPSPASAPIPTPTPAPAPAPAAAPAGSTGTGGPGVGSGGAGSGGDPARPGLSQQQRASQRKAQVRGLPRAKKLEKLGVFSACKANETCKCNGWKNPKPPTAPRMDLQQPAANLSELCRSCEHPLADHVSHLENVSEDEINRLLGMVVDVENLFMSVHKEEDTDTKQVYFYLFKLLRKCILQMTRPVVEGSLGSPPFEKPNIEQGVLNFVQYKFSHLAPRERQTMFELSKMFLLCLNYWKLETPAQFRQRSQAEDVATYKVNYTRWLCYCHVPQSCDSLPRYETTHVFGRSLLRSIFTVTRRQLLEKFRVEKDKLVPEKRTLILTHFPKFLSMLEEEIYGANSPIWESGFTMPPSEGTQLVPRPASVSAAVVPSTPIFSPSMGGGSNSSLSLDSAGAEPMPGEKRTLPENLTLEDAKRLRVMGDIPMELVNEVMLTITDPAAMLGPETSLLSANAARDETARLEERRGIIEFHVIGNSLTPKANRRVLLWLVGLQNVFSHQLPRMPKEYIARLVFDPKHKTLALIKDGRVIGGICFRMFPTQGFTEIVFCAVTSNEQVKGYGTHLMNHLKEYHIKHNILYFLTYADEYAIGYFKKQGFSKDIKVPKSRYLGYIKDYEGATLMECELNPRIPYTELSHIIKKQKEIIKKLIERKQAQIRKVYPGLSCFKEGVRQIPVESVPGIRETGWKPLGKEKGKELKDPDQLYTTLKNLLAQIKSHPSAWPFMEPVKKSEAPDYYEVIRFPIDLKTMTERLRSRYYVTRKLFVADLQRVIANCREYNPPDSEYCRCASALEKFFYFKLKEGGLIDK
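GCN5L2 (20 nM) in 50mM HEPES pH 7.5, 0.1mM EDTA, 0.01% Tween-20 preincubated 15 min with compounds at room temperature. Reaction started with H3(1-25) 75uM, acetyl-CoA 70uM, ThioGlo1 50uM; CoA-thiol fluorescence (Ex340/Em540) read at 0 and 20 min.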
N370S GC = inhibitors or activators of N370S glucocerebrosidase for Gaucher disease | P04062 | N370S GC spleen homogenate, 4MU-glucoside fluorescence | Potency, µM (doses to about 59.4 µM), for inactives: top-dose activity change, negative = inhibition, actives largely listed as inhibitors | 0.092% of 330,000 active | AID 2101;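 note: 0% = full enzyme activity and -100% = no enzyme basal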
* marks the source's active call; other numbers are inactive results; ? = inconclusive; . = no result given; & = joins results of further samples; [ ] = another dose, or the depositor's remark. Calls come from the whole dose curve; as a rule, active = well fitted curve in the direction sought with a large enough effect; inconclusive = small, poorly fitted or top-dose-only effect, or another doubt; inactive = no such curve, though single readings can be large; an effect the other way counts as inactive or inconclusive. Unless noted, % is set by controls: 0 for no effect and ±100 for the full control effect; potency is the fitted concentration of half-maximal effect. This is a subset, and most or all hits are left out here.

SMILES | GCN5L2 inh | N370S GC
Cc1cc(C)c2[nH]c(=O)c(C(c3nnnn3C(C)(C)C)N(Cc3ccco3)CC3CCCO3)cc2c1 (stereo not given) | -5% | ?
O=C(CSc1nnc2scc(-c3ccc(Cl)cc3)n12)NCc1ccc2c(c1)OCO2 | 1% | -2%
CNC(=O)CN1C(=O)CSc2nc(C)cc(C)c21 | -4% | 3%
O=C(c1cccn1-c1nnc(N2CCCC2)s1)N1CCN(c2ccc(Cl)cc2)CC1 | 21% | .
O=C(N/N=C/C1CCCCC1)c1ccccc1-n1cccc1 | -7% | -2%
O=C1Nc2ccc(Br)cc2C1(O)c1ccccc1 (stereo not given) | -6% | -8%
COC(=O)c1ccc(CSc2ncnc3ccccc23)o1 | -10% | 12%
Cc1cc(=O)nc2c3ccccc3n(C(C)C(=O)NCCN3CCOCC3)n12 (stereo not given) | -1% | 0%
COc1ccc(NC(=O)Nc2nc(C)cc(C)n2)c(OC)c1 | 1% | 0%
Clc1ccc(-n2ncc3c(NCCCn4ccnc4)ncnc32)cc1 | -7% | 3%
COc1ccccc1C(CNC(=O)C(CCSC)NS(=O)(=O)c1ccccc1F)N1CCCC1 (stereo not given) | -4% | 5%
COc1cc(C(=O)NC2Cc3ccccc3C2)ccc1OC1CCN(C(C)=O)CC1 | 1% | 0%
COc1ccccc1/C=C/C(=O)OCC(=O)NCCC1=CCCCC1 | -3% | 24%
O=[N+]([O-])c1cc(C(F)(F)F)cc([N+](=O)[O-])c1NCCN1CCNCC1 | 1% | 4%
CCCc1nc2ccccc2c(=O)n1/N=C/c1c(C)[nH]n(-c2ccc(C)cc2)c1=O | -10% | -18%
CCN1C(=O)N[C@@H](c2cccs2)C(C(C)=O)=C1C | 4% | 3%[12.8 µM]
Cc1cc(=O)[nH]c(SCC(=O)NC2CCCCCCC2)n1 | -6% | .
O=C(Nc1ccc(F)c(Cl)c1)N1CCC(CN2CCOCC2)CC1 | 2% | .
COc1ccc(-n2nnc3c(=O)n(Cc4cccc(C)c4)cnc32)cc1 | -20% | ?
CC1(C)CC(=O)C(C(=O)/C=C/NCCc2ccccc2)C(=O)C1 | 1% | 8%
C/C(=N\NC(=O)CNC(=O)c1ccc2c(c1)OCO2)c1ccco1 | -1% | 6%
Cc1nnc(SCC(=O)c2ccc(C(C)C)cc2)s1 | -11% | -3%
O=C(CCc1nc2ccccc2c(=O)[nH]1)Nc1ccc(N2CCCCC2)cc1 | 8% | 10%
O=C1Nc2ccccc2/C1=N\N1CCOCC1 | -7% | -9%
Cc1ccc(-n2nc3c(c2NC(=O)c2cccs2)CS(=O)(=O)C3)c(C)c1 | -3% | -15%
CC(C)N=C(NC#N)SCc1ccc(Br)cc1 | -5% | -6%
CC1CC(C)CN(C(=O)CSc2nnc(CSc3ncccn3)n2C)C1 (stereo not given) | -3% | 10%
Cc1cc2ccccn2c1C(=O)c1ccc(F)cc1 | -9% | 1%
COc1ccc(CNC(=O)C2CCN(S(=O)(=O)c3cccc(C(F)(F)F)c3)CC2)cc1 | -9% | -1%
Fc1ccccc1C1CCN(Cc2nc(CC3CC3)no2)C1 (stereo not given) | -7% | 0%
CN(C)S(=O)(=O)c1cc([N+](=O)[O-])ccc1N1CCCCCC1 | -4% | 0%
CCO[C@H]1OC(C(N)=O)=C[C@@H](c2csc3ccccc23)[C@@H]1CCCO | -3% | 8%
COc1ccc(OC)c(C2=C[N+](=O)C(C)(C)C(C)(C)N2[O-])c1 | -8% | -2%
COC(=O)c1cnc(N2CCN(c3ccc(F)cc3)CC2)c2ccccc12 | -8% | .
Cc1ccc(CN2CCSCC2)c(C)c1 | -2% | -18%
O=C(NC1CCc2ccccc21)c1cc(COc2ccc(F)cc2F)on1 (stereo not given) | 0% | 10%
Cn1c(Cn2c(=O)sc3ccccc32)nnc1SCC(=O)Nc1ccccc1 | 0% | 0%
O=C(CSc1nnc(-c2ccncc2)n1CCc1ccccc1)NCc1ccccc1 | -8% | 5%
O=C(CSc1nnc(-c2ccccc2F)o1)NC1CCCCC1 | -3% | 4%
O=C(N/N=C/c1ccncc1)c1ccc(OCc2ccccc2)cc1 | -5% | -13%
CN1C(=S)SC(/[N+]([O-])=C/c2ccc(Cl)cc2)C1(C)C (stereo not given) | 18% | 7%
COc1cc(CNc2ccc(C(=O)O)cc2)cc(Br)c1OCC(=O)NC(C)(C)C | 1% | 0%
CCc1cc(=O)oc2cc(C)cc(OC(C)C(=O)NC3CC(C)(C)NC(C)(C)C3)c12 (stereo not given) | -6% | -1%
FC(F)(F)c1nc(-c2ccncc2)ncc1-c1nnnn1-c1ccccc1 | -5% | -5%
CCn1c(C(=O)N2CCC(C(=O)NCCc3ccccc3)CC2)cc2sccc21 | -3% | .
COc1ccc(CN2CCCCCC2)c(C)c1C | -8% | 10%
COc1ccccc1NC(=O)CSc1ccc(-c2cccs2)nn1 | -3% | ?
O=c1cc(C(F)(F)F)oc2c1ccc1ccccc12 | 2% | -3%
CC(C)CC(NC(=O)C1CCC(C)CC1)C(=O)Nc1ccccc1F (stereo not given) | -5% | -5%
Cc1oc(-c2ccc(C(=O)Nc3cc(F)ccc3F)cc2)nc1COc1ccccc1 | 4% | .
CCNC(=S)Nc1cc(OCC)c(N2CCOCC2)cc1OCC | -6% | 2%
Cc1ccc2nc(NC(=O)COC(=O)c3cccnc3)sc2c1 | 0% | .
CCOc1cc(C(=O)Nc2ccc(-c3nc4ncccc4o3)cc2C)cc(OCC)c1OCC | -1% | .
CC(C)C(c1nnnn1C1CCCCC1)N1CCOCC1 (stereo not given) | -4% | -6%
C(=C(c1ccccc1)c1ccccc1)c1ccccn1 | -5% | -5%
O=C(Nc1ccccc1N1CCCCC1)c1cc(S(=O)(=O)N2CCOCC2)ccc1F | -11% | -8%
COCCCNC(=O)CN1C(=O)COc2ccc(S(=O)(=O)N3CCOCC3)cc21 | -3%&-10% | -2%
COc1ccc2c(c1)CCC/C2=N\NC(=O)c1ccoc1C | -3% | 6%
Cc1ccccc1-n1c(CSC(=N)N)nc2ccccc2c1=O | 0% | 6%
CN1CCN(C(=O)c2cc3c(n(-c4ccccc4)c2=O)CC(C)(C)CC3=O)CC1 | ? | -3%

The results go on:
SMILES | GCN5L2 inh | N370S GC
O=C(OCc1ccccc1)C1CCCN1C(=O)c1ccccc1[N+](=O)[O-] (stereo not given) | 5% | 13%
NC(=O)c1nn(-c2ccc(Cl)cc2Cl)c(=O)cc1O | -6% | -9%
CC(C)Oc1ccc(C(=O)Nc2ccc([N+](=O)[O-])cc2)cc1 | -2% | -3%
O=C(N/N=C1\CCCc2ccccc21)c1cccc([N+](=O)[O-])c1 | 32µM* | 0%
COc1ccccc1C1CC(c2ccc(C)cc2)Nc2ncnn21 (stereo not given) | -2% | -1%
Cn1c(/C(C#N)=C(\O)c2ccc(Br)s2)nc2ccccc21 | -7% | -5%
CCOc1ccc(-c2nnc(NC(=O)C3CCCC3)o2)cc1 | -3% | 6%
CC(C)NC(=O)CC(=O)Nc1ccc2nc3n(c(=O)c2c1)CCCCC3 | -2% | .
CC(=O)N1CCc2cc(Br)cc(S(=O)(=O)CCC(=O)N3CCN(c4ccc(F)cc4)CC3)c21 | -1% | .
COc1cccc(NC(=O)CN(c2cccc(OC)c2)S(C)(=O)=O)c1 | 2% | -8%
Cc1nc(Cl)sc1C(=O)Nc1ccccc1 | -8% | -16%
CCOCCc1nn2c(=O)cc(CSCC(=O)Nc3cc(C)cc(C)c3)nc2s1 | -1% | 0%
COc1ccccc1CCC(=O)NNC(=O)c1ccc(Br)cc1 | -2% | 1%
Cc1cc(C)c(NC(=O)c2cc(C(=O)O)ccc2C(=O)O)c([N+](=O)[O-])c1 | -2% | -29%
Cc1ccccc1-n1c(=O)c2ccccc2n2cnnc12 | -7% | -24%
COc1ccc(OC)c(NC(=O)COC(=O)Cc2ccc(-c3ccccc3)cc2)c1 | -10% | 25%
COc1ccc(CNC(=O)c2ccc(CNc3c(NC4CCCCC4)c(=O)c3=O)cc2)cc1 | -9% | 1%
O=C(COCc1cc(-c2ccc3c(c2)OCO3)on1)Nc1cccnc1Cl | -5% | -23%
Cc1ccc(C(=O)Cn2nnc(-c3ccccc3)n2)cc1 | -6% | 3%
O=C1CC2(CCN(C(=O)COc3ccc(F)cc3)CC2)Oc2ccccc21 | -9% | 1%
N#Cc1cccnc1N1CCN(C(=O)c2ccccc2)CC1 | 11% | 5%
CN1CCN(NC(=O)c2cccs2)CC1 | ? | 0%
CC(NC(=O)C(C)N1C(=O)c2ccccc2C1=O)c1ccccc1 (stereo not given) | -15% | -14%
Cc1cc2c(cc1S(=O)(=O)NCc1ccccc1)NC(=O)CO2 | -23% | -4%
COc1ccc(CNS(=O)(=O)c2c(C(=O)N3CCCCCC3)c(C)n(C)c2C)cc1 | -4% | 0%
CN(C)S(=O)(=O)c1cc(NC2CC(=O)N(c3ccc(F)cc3)C2=O)ccc1Cl (stereo not given) | -9% | 1%
CCc1ccc(OCCOCCN2CCN(C)CC2)cc1 | -13% | -3%
CN1CCN(C(=S)Nc2ccc(Cl)c(Cl)c2)CC1 | -7% | -6%
COCCN1Cc2cccc(C(=O)NCc3cccnc3)c2C1=O | -5% | -1%
CCCCCCNc1nc2c(c(=O)n(C)c(=O)n2C)n1Cc1cccc(C)c1 | 3% | .
CCOC(=O)c1c(C)[nH]c(O)c1C=Nc1ccc(C(F)(F)F)cc1 | -18% | -14%
OC(c1ccccc1)C(CN1CCOCC1)c1ccccc1 (stereo not given) | -2% | 0%
Cc1ccc(C(=O)CN2C(=O)NC3(CCCCCC3)C2=O)c(C)c1 | -1% | 2%
CC(C)C[C@H](NC(=O)N1CC(=O)Nc2ccccc21)C(=O)N[C@@H](C(=O)O)c1ccccc1 | 2% | -4%
CCC(=O)Nc1cccc(NC(=O)c2cccnc2)c1 | 0% | ?
CCOC(=O)c1c(NC(=O)CSc2nc3ccc(C)cc3[nH]2)sc2c1CC(C)(C)NC2(C)C | -11% | -15%
O=C(NC1CCCCC1)c1cccnc1Sc1ccccc1 | -1% | -1%
CCOc1cc(-c2ccc(N)c(OCC)c2)ccc1N | -4% | 10%
CN(CC(=O)Nc1ccc(Cl)c(C(F)(F)F)c1)C(=O)c1cccc(N2C(=O)CCC2=O)c1 | -1% | .
N=c1ccn(Cc2ccccc2Cl)cc1 | 1% | 4%
COCCN(C(=O)CSc1nc2ccccc2o1)c1c(N)n(Cc2ccccc2)c(=O)[nH]c1=O | -9% | .
Cc1nn(CCC(N)=S)c2nc(-c3cccs3)cc(C(F)(F)F)c12 | 1% | 2%
O=C(O)COc1ccc(Oc2ccccc2)cc1 | -23% | -8%
O=C(Oc1c(-c2ccccc2)c(=O)n2c3c(cccc13)CC2)c1cccc([N+](=O)[O-])c1 | -21% | ?
Cc1cccc(-n2ncc3c(N4CCCC4)ncnc32)c1 | -9% | 10%
CCCN(CCC)S(=O)(=O)c1ccc(C(=O)Nc2cccnc2)cc1 | -3% | -20%
CC(=O)Nc1ccc(NC(=O)C(C)OC(=O)c2ccc3c(c2)OCCO3)cc1 (stereo not given) | -2% | 5%
COc1ccc(C(=O)NNC(=O)CSc2ccccc2)cc1 | -16% | 0%
Cc1cccc(NC(=O)Nc2cccc(F)c2)n1 | -6% | ?
CC1(C)CC(=O)C2=C(C1)OC(N)=C(C#N)C21C(=O)N2CCCc3cccc1c32 (stereo not given) | -1% | 3%
Cc1cc(C)cc(-n2nnc(C(=O)NCc3ccc4c(c3)OCO4)c2N)c1 | -5% | 24%
N/C(=N\OC(=O)c1ccco1)c1ccc(Br)cc1 | -5% | 3%
CCOC(=O)C1CCN(S(=O)(=O)c2ccc(CNC(=O)c3ccccc3)s2)CC1 | -3% | 21%
O=C(CN1CCN(c2cccc(Cl)c2)CC1)N1CCCC1 | -1% | -9%
COc1ccc(-c2cc3nc(C)c(CCC(=O)NC4CCCCC4)c(C)n3n2)c(OC)c1 | 2% | .
C/C(=N/NC(=O)c1ccc(Br)s1)c1ccncc1 | -5% | -19%
CCCc1cc(C(=O)NNC(=S)NC(C)c2ccccc2)cs1 (stereo not given) | -2% | 7%
